# HCMV UL50-53 inh: inhibitors of HCMV UL50-UL53 nuclear egress complex interaction. AID 1918969. actives 0.15% (n = 190,000). HTRF UL50-UL53 interaction, normalized percent inhibition. inhibition, % (concentration not given with the values);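 active = both replicates at 50% or more, plus weaker picks with an unusually low signal ratio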;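 also: stock transfer was 100 nL into about 20 µL; 0% = negative control wells and 100% = wells with untagged competitor protein; inactives centre near -12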
# Sa growth 42C: blocks Staphylococcus aureus growth; relative growth, % (concentration not given with the values); S. aureus RN4220 growth, OD600, 20 h, 42 °C; hits give low values; actives 0.53% (n = 170,000); AID 720641;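 active = growth at 42 °C up to 50% and 20 or more points under that at 30 °C, or under 10% at both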;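 also: 300 nL library stock went into each well; scaled to the means of positive and negative controls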
# GIV Gai3 FP: inhibitors of GIV GBA-motif binding to rat Galpha-i3. P08753. Galpha-i3/FITC-GIV peptide fluorescence polarization, 90 min; hits give low values; scaled: aluminum fluoride 0%, vehicle 100%. percent of control (FP), % (no concentration beside the values). actives 0.42% (n = 210,000);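 active = replicate mean at 85% of control or lower, very high polarization wells dropped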;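 also: wells of about 15 µL received 100 nL stock; the first replicate is given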
# Target sequence (P08753 whole entry, looked up): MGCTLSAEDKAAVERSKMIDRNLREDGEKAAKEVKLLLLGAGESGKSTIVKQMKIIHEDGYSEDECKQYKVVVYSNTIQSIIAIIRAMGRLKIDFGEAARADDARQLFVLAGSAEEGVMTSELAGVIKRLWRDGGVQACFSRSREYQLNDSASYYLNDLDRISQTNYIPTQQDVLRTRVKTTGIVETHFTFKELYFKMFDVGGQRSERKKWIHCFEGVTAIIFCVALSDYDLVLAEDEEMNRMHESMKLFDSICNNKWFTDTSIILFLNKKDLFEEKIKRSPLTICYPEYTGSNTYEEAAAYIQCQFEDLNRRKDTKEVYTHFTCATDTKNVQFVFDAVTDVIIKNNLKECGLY
# Sa growth 42C second temp: also measured in Sa growth 42C; calls as there; relative growth, %; measured here: growth at 30 °C;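 optical density after 20 h as mean of two plates; 100% = untreated growth and lower means inhibition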
# * hit, by the source's call; / = no result given; & = joins results of further samples.
SMILES,HCMV UL50-53 inh,Sa growth 42C,Sa growth 42C second temp,GIV Gai3 FP
O=S(=O)(c1ccc(F)c(Cl)c1)N1CCc2nc(N3CCCCC3)ncc2C1,-18,/,/,113
Cc1cccc(CSc2nnc([C@@H]3CCCN3)o2)c1,-27,/,/,104
O=C(NCc1ccc2c(c1)OCO2)c1ccc2c(c1)N(Cc1c(F)cccc1Cl)C(=O)c1ccccc1S2,-22,107,105,101
CCOc1ccc(NS(=O)(=O)c2cc(C(=O)N3CCN(c4ccccn4)CC3)n[nH]2)cc1,-23,/,/,100
COC(=O)c1ccccc1NC(=O)c1ccc2c(c1)CCCN2S(=O)(=O)c1ccc(C)cc1,-9,/,/,106
Cc1noc(-c2ccccc2OCC(=O)Nc2cccc([N+](=O)[O-])c2)n1,-3,107,89,101
CCCOc1cccc2ccccc12,-7,96,71,101
CCCNC(=O)C1=CC(c2ccc3c(c2)OCO3)=NS(=O)(=O)N1C,-80,116,87,104
O=C1CCN(S(=O)(=O)c2ccc(Br)cc2)CCN1,-19,87,88,/
CCCn1c(=O)c2sccc2n2c(CCCC(=O)NCc3ccccc3)nnc12,/,86,74,102
O=C1CC(NCCc2ccccc2)C(=O)N1c1ccccc1 (stereo not given),-35,84,80,99
Cc1ccc(C(=O)OCC(=O)N2c3ccccc3CC2C)cc1 (stereo not given),-23,86,82,/
O=c1cnn(-c2ccccc2)c(-c2ccccc2)c1,-28,96,76,/
NNC(=O)c1ccc2c(c1)OCCO2,-10,/,/,104
COc1ccc(OC)c(NC(=S)NCc2ccc3[nH]c(C)cc3c2)c1,/,104,92,102
Cc1c(C(=O)NCC2(N3CCN(C)CC3)CCCCC2)oc2ccc(Br)cc12,12,/,/,108
CCCc1cc(C(=O)O)n[nH]1,-14,106,101,110
COc1ccc(C(=O)NCc2nnc(SCC(=O)Nc3ccccc3)n2-c2ccc(F)cc2)cc1,-22,100,86,100
O=C(c1ccc(Cl)cc1)N1CCc2sccc2C1c1ccc(Cl)cc1 (stereo not given),-7,93,102,111
C=Cc1ccc(Cn2nc3n(CC(C)C)c(=O)c4ccccc4n3c2=O)cc1,-29,/,/,103
COC(=O)c1cccc(Oc2nc(Nc3ccccc3F)nc(N3CCC4C=CC=CC4C3)n2)c1 (stereo not given),/,105,72,103
Fc1ccc(Nc2nc(-c3ccc(F)cc3)c3c(n2)-c2ccccc2OC3)cc1,5,98,99,107
CN1CCN(C(=O)c2noc3c2CCCCC3)CC1,1,/,/,104
O=C(Cc1ccccc1)Nc1c[nH]c(=O)[nH]c1=O,-9,95,84,97
Cc1c(C(=O)N2CCOCC2)oc2ccc3c(c12)C(=O)CC(C)(c1ccc(Cl)cc1)O3 (stereo not given),-11&17,86,55,104&99
Cn1c(C(=O)O)c(CC(=O)NCc2cccnc2)c2ccccc21,/,111,87,104
O=C(CN1C(=O)CSc2ccc(S(=O)(=O)N3CCOCC3)cc21)NCCCN1CCCCC1,/,112,85,103
O=C(CN1C(=O)c2cccc3cccc1c23)NC1CCCCCC1,-4,82,85,94
Cc1cc(S(=O)(=O)Nc2cc3c(cc2N2CCCCC2)n(C)c(=O)c(=O)n3C)ccc1F,-28,/,/,105
O=c1c2sc3ccccc3c2n(Cc2ccccc2F)c(=O)n1Cc1ccco1,-9,89,84,101
CCOc1ccc(/C=N/n2cnc3ccccc3c2=O)cc1CN1CC2CC(C1)c1cccc(=O)n1C2 (stereo not given),-1,99,98,110
Cc1ccc(Nc2cc(N3CCN(C(=O)c4ccc(C)cc4)CC3)ncn2)cc1,-7,/,/,101
Cc1cccc(N=C2SCC(=O)N2c2cccc(C)c2)c1,/,94,87,101
CCn1c2ccc(OC)cc2c2nc3ccccc3nc21,-60,96,65,96
CCOC(=O)C1CCCCN1S(=O)(=O)c1csc(C(N)=O)c1 (stereo not given),/,87,80,110
CCOC(=O)c1c(C)oc2nc(C)nc(N3CCN(c4cccc(C(F)(F)F)c4)CC3)c12,/,87,93,104
COc1ccc(OC)c(Sc2ccc3nnc(-c4ccccc4)n3n2)c1,3,93,90,101
COc1cccc(C(C(=O)NC2CCCCC2)N(C(=O)c2ccccn2)c2cccnc2)c1 (stereo not given),0,119,121,100
O=C(Nc1ccc(Cl)cc1)C1CCCC1,-12,108,92,/
CCC(NC(=O)Cc1ccccc1)C(=O)O (stereo not given),-4,85,78,101
CCOc1ccc(N(CC)C(=O)CN2C(=O)C3C4C=CC(C4)C3C2=O)cc1 (stereo not given),1,96,92,98
CCOC(=O)Nc1cc(C(C)(C)C)on1,-5,108,110,105
CCOc1ccc(C(=O)Nc2nnc(S(=O)(=O)Nc3ccccc3)s2)cc1,-14,120,91,107
Cc1ccc(-n2nc(C)c3c(C)cc(=O)n(CC(=O)N4CCCc5ccccc54)c32)cc1,/,85,94,99
COc1ccccc1-c1noc(-c2ccccc2C(=O)NCc2ccco2)n1,-5,106,93,100
CCn1cnc(S(=O)(=O)N2CCC(C(=O)N3CCCC3)CC2)c1,-7,/,/,109
COC(=O)c1ccccc1NC(=O)Cn1nnc(-c2ccc(OC)cc2)n1,/,142,89,103
Cc1ccc(N2C(=O)N(CCN3C(=O)c4ccccc4C3=O)C(=O)C2C)cc1 (stereo not given),-8,102,109,/
Cc1cc(C)c2c(N)c(-c3nc4ccccc4[nH]3)sc2n1,-4,100,94,98
NC1=NC(=Nc2ccc(Cl)cc2)c2ccccc21,-65&-51,58&99,103&92,93
CCC(=O)N(CCC(c1ccccc1)c1ccc2c(c1)OCO2)Cc1ccc(OC(C)C)cc1 (stereo not given),-15,83,74,100
CCCCC1Oc2ccc(Cl)cc2NC1=O (stereo not given),-6,/,/,110
CCOC(=O)c1cnc(SCc2ccccc2)nc1N,-29,91,80,108
COc1ccc(S(=O)(=O)N2Cc3ccccc3CC2C(N)=O)cc1OC (stereo not given),/,83,80,97
Oc1oc(-c2ccc(Br)cc2)nc1/C=N/c1nc2ccccc2s1,-20,/,/,155
Cc1cccc(NCN2C(=O)CSC2=O)c1C,-29,78,99,/
O=C(CN1C(=O)C2C3C=CC(C3)C2C1=O)NCCc1ccccc1Cl (stereo not given),-4,92,92,102
CCNc1cc(N)[n+](CC)c2n[nH]c(N)c12,-21,119,89,107
COc1ccc(-c2nn3c(-c4cccnc4)nnc3s2)cc1OC,7,/,/,103
Cc1nn(-c2ccccc2)c2c1N(CC(=O)N1CCCCC1)C(=O)CS2,-12,102,92,106

# 3 compounds from above, ordered by the number in Sa growth 42C, low to high:
Structure,Sa growth 42C,Sa growth 42C second temp,GIV Gai3 FP
COc1ccc(S(=O)(=O)N2Cc3ccccc3CC2C(N)=O)cc1OC (stereo not given),83,80,97
Cc1cc(C)c2c(N)c(-c3nc4ccccc4[nH]3)sc2n1,100,94,98
Cc1ccc(N2C(=O)N(CCN3C(=O)c4ccccc4C3=O)C(=O)C2C)cc1 (stereo not given),102,109,/

# Later entries:
SMILES,HCMV UL50-53 inh,Sa growth 42C,Sa growth 42C second temp,GIV Gai3 FP
CCOc1ccc2nc3sc(C(=O)Nc4nonc4C)c(N)c3cc2c1,-14,101,77,143
Cc1nc2ccccc2nc1OCC(=O)N(C1CCCCC1)C1CCCCC1,-30,58,79,/
O=C1CC(C(=O)c2ccccc2)N=C(Nc2ccc(Cl)cc2Cl)N1 (stereo not given),0,102,107,107
CC1CCN(C(=O)c2cc(-c3cccc(Cl)c3)on2)CC1,-15,86,64,105
COCC(C)NS(=O)(=O)c1ccc(F)cc1 (stereo not given),-21,97,88,/
Cc1ccccc1CN(C)C(=O)C1CC(=O)N(Cc2ccccc2)C1 (stereo not given),-9,110,87,/
O=C(NCC(c1ccc(Cl)cc1)N1CCCCC1)c1ccc(F)cc1 (stereo not given),-2,108,84,104
CC1(C)CC(=O)C(C=NCc2ccco2)=C(O)C1,/,77,78,100
O=C1C(c2cc(Cl)cc(Cl)c2)=C(O)c2ccccc21,-112,61,42,102
O=C(CC(C(=O)O)C1CCCO1)NCc1ccccc1 (stereo not given),-12,90,78,96
Cc1ccccc1N(C)C(=O)c1cn(C)c(=O)c2ccccc12,-5,86,85,98
CCCN(CCC)S(=O)(=O)c1ccc(C(=O)Nc2nc3ccc4sc(C)nc4c3s2)cc1,0,/,/,109
S=C(Nc1ccccc1)Nc1ccc2c(c1)oc1ccccc12,/,89,93,105
CCN1CCC(=NNc2ccc(Cl)c(C(=O)O)c2)CC1,-14,100,100,/
C=CCn1c(NCc2ccc(Cl)cc2)nc2ccccc21,-34,84,81,98
COc1ccc(N=c2scc(C)n2C(=O)c2ccccc2Cl)cc1,-32,94,81,102
CC(C)CNC(=O)C1(c2cccs2)CCOCC1,-14,104,90,107
CCOC(=O)Cc1ccc(NC(=O)N2CCc3c(c(C(=O)N4CCCC4)nn3C)C2)cc1,-28,/,/,103
COc1cc(OC)c(OC)cc1CNc1sc2c(c1C(=O)Nc1ccccc1OC)CCC2,/,115,88,134
CCCC(=O)Nc1cc(C(=O)NCc2ccc(OC)cc2)ccc1S(=O)(=O)c1ccc(Cl)cc1,/,123,86,99
CN(C)c1ccc2nc3c(=O)n(CCc4ccccc4)c(=O)[nH]c3nc2c1,-20,91,95,104
CNC(=O)N1CCCC(c2cccc(C(=O)N3CCCCC3)c2)C1 (stereo not given),-24,/,/,105
CN1c2cc(Cl)ccc2-c2nc(SCC(=O)Nc3ccc4c(c3)OCO4)ncc2S1(=O)=O,-11,/,/,104
COc1cc(OC)c(NC(=O)c2csc3c2CCC(C)C3)cc1Cl (stereo not given),19,94,98,102
O=C(NCC1CCCO1)c1cc2ccccc2oc1=O (stereo not given),-82,105,92,105
CC(=Nc1cccc2ccccc12)c1sc2ccccc2c1O,-10,/,/,94
Cc1nn(Cc2ccccc2Cl)c(Cl)c1/C=C/C(=O)OCC#N,-43,85,97,/
COc1ccc(C2/C(=C(\O)c3ccc(C)cc3)C(=O)C(=O)N2CCC(=O)O)cc1 (stereo not given),-42,97,94,104
O=C(Cn1cncn1)c1ccc(Br)cc1Br,12,99,106,/
Cc1ccc(C)c(Cn2nc(C)n3c(cc4cc(C)ccc43)c2=O)c1,-17,121,88,104
c1ccc2c(c1)[nH]c1nc(SCCN3CCOCC3)nnc12,-121,90,77,104
Cc1cccc(-n2nc3c(c2NC(=O)Nc2cccc(Cl)c2)CSC3)c1,-4,79,52,106
Cc1ccc(Nc2ncc(C(=O)N3CCCCCC3)c3ccccc23)cc1Cl,/,125,91,106
CC(C)OC(=O)C(C#N)c1nc2ccccc2nc1N1CCN(c2ccccc2)CC1 (stereo not given),-3,92,88,103
Cc1ccc(C)c(N2CCN(C(=O)C3CCN(c4nc5ccccc5n5cccc45)CC3)CC2)c1,-18,/,/,101
CCn1c2ccccc2c2cc(C=Nc3ccc(Cl)cc3)ccc21,-8,102,86,/
Nc1ccccc1N=C(c1ccccc1)c1c[nH]n(-c2ccccc2)c1=O,-27,95,97,/

# Reformatted: 22 of the compounds above
# Every second line gives: HCMV UL50-53 inh	Sa growth 42C	Sa growth 42C second temp	GIV Gai3 FP
> COc1ccc(N=c2scc(C)n2C(=O)c2ccccc2Cl)cc1
    -32	94	81	102
> CC(C)CNC(=O)C1(c2cccs2)CCOCC1
    -14	104	90	107
> CCOC(=O)Cc1ccc(NC(=O)N2CCc3c(c(C(=O)N4CCCC4)nn3C)C2)cc1
    -28	/	/	103
> COc1cc(OC)c(OC)cc1CNc1sc2c(c1C(=O)Nc1ccccc1OC)CCC2
    /	115	88	134
> CCCC(=O)Nc1cc(C(=O)NCc2ccc(OC)cc2)ccc1S(=O)(=O)c1ccc(Cl)cc1
    /	123	86	99
> CN(C)c1ccc2nc3c(=O)n(CCc4ccccc4)c(=O)[nH]c3nc2c1
    -20	91	95	104
> CNC(=O)N1CCCC(c2cccc(C(=O)N3CCCCC3)c2)C1 (stereo not given)
    -24	/	/	105
> CN1c2cc(Cl)ccc2-c2nc(SCC(=O)Nc3ccc4c(c3)OCO4)ncc2S1(=O)=O
    -11	/	/	104
> COc1cc(OC)c(NC(=O)c2csc3c2CCC(C)C3)cc1Cl (stereo not given)
    19	94	98	102
> O=C(NCC1CCCO1)c1cc2ccccc2oc1=O (stereo not given)
    -82	105	92	105
> CC(=Nc1cccc2ccccc12)c1sc2ccccc2c1O
    -10	/	/	94
> Cc1nn(Cc2ccccc2Cl)c(Cl)c1/C=C/C(=O)OCC#N
    -43	85	97	/
> COc1ccc(C2/C(=C(\O)c3ccc(C)cc3)C(=O)C(=O)N2CCC(=O)O)cc1 (stereo not given)
    -42	97	94	104
> O=C(Cn1cncn1)c1ccc(Br)cc1Br
    12	99	106	/
> Cc1ccc(C)c(Cn2nc(C)n3c(cc4cc(C)ccc43)c2=O)c1
    -17	121	88	104
> c1ccc2c(c1)[nH]c1nc(SCCN3CCOCC3)nnc12
    -121	90	77	104
> Cc1cccc(-n2nc3c(c2NC(=O)Nc2cccc(Cl)c2)CSC3)c1
    -4	79	52	106
> Cc1ccc(Nc2ncc(C(=O)N3CCCCCC3)c3ccccc23)cc1Cl
    /	125	91	106
> CC(C)OC(=O)C(C#N)c1nc2ccccc2nc1N1CCN(c2ccccc2)CC1 (stereo not given)
    -3	92	88	103
> Cc1ccc(C)c(N2CCN(C(=O)C3CCN(c4nc5ccccc5n5cccc45)CC3)CC2)c1
    -18	/	/	101
> CCn1c2ccccc2c2cc(C=Nc3ccc(Cl)cc3)ccc21
    -8	102	86	/
> Nc1ccccc1N=C(c1ccccc1)c1c[nH]n(-c2ccccc2)c1=O
    -27	95	97	/
